Assay outcomes: PubChem, Fisher Drug Discovery Resource Center
NPYLR7 agonist = agonists of mosquito NPYLR7 receptor, primary screen, cell-based, Aedes aegypti, calcium fluorescence, mosquito biting behavior. Aedes aegypti neuropeptide Y-like receptor 7 (NPYLR7). HEK293T NPYLR7/Galpha15, GCaMP6s calcium fluorescence. activation, % at 10 µM. 270,000 compounds, 0.15% hits. AID 1259423, 2018; in the data active = activation above about 40%;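 also: 0% = vehicle and 100% = reference agonist at the receptor; some compounds past the cut are filed as inactive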
NPYLR7 agonist max-min = recorded beside NPYLR7 agonist, whose call it bears; activation, %; measured here: Max-Min RFU normalised activation; some inactives read as strong as hits;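 span of the calcium signal over five minutes; 0% = vehicle and 100% = native peptide agonist; compound fluorescence can raise it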
Active calls of the source: *; & = joins results of further samples. The list is partial; count on the stated rates, not on these rows.

| Molecule | NPYLR7 agonist | NPYLR7 agonist max-min |
| --- | --- | --- |
| O=C(CC1C(=O)NCCN1Cc1cccc(Oc2ccccc2)c1)NC1CCCC1 (stereo not drawn) | 2 | -5 |
| CCSCC(C)N(C)Cc1nnsc1Cl (stereo not drawn) | 7 | 3 |
| COc1ccc2cc(C3CN(C(=O)CN4CCNC(=O)C4)CCO3)ccc2c1 (stereo not drawn) | -6 | -6 |
| O=C1CC(C(=O)N(Cc2ccccc2F)C2CC2)CN1c1ccccc1Br (stereo not drawn) | 5 | 3 |
| O=[N+]([O-])c1ccc(Cl)c(CN2CCCn3cccc3C2c2ccc(F)cc2F)c1 (stereo not drawn) | 4 | 18 |
| COc1cn(C)c(C(=O)Nc2ccc3c(c2)OCCO3)cc1=O | 3 | 0 |
| CCC(C(=O)Nc1c(-c2ccccc2OC)nc2cc(C)ccn12)c1ccccc1 (stereo not drawn) | -13 | -10 |
| CNC(=O)C1CCCCN1CC(=O)NCC1CCCO1 (stereo not drawn) | 2 | -1 |
| CCOC(=O)C1(Cc2cccc(OC)c2)CCN(Cc2ccccc2OC)CC1 | 3 | 1 |
| Cc1ccc(-c2csc(NC(=O)c3ccc([N+](=O)[O-])s3)n2)cc1C | 8 | 0 |
| COC(=O)c1c(C)[nH]c(C)c1C(=O)c1ccccc1Cc1ccccc1 | -4 | -31 |
| CC1(C)CC(=O)c2cn3nc(-c4cccnc4)nc3nc2C1 | -6 | -4 |
| COC(=O)Cn1c(=O)c2c(nc3n(Cc4ccco4)c(C)c(C)n23)n(C)c1=O | 12 | 6 |
| CCn1cc(CN2CCN(Cc3cccs3)C(CCO)C2)cn1 (stereo not drawn) | 7 | 2 |
| CC(=O)c1cccc(NC(=O)CC2S/C(=N/N=C3/C=C(C)CC(C)(C)C3)NC2=O)c1 (stereo not drawn) | 5 | 3 |
| CSCC(=O)N1CCc2[nH]c3ccc(Br)cc3c2C1 | -19 | -18 |
| CC1CCCCC1Nc1cccc(N2CCCC2)c1 (stereo not drawn) | 12 | 8 |
| CC(C)Cc1ccc(-c2cc(Nc3ccc4[nH]ccc4c3)ncn2)cc1 | 25 | 25 |
| N#Cc1cccc(C(=O)NCc2ccc(-c3ncc(-c4ccc(N5CCOCC5)cc4)[nH]3)cc2)c1 | -1 | -5 |
| Cc1ccc(C(=O)C2OC(=O)C(C)(C)C(=O)C2(C)C)cc1 (stereo not drawn) | 11 | 4 |
| CCN(CC)C(CNS(=O)(=O)c1ccccc1F)Cc1ccccc1 (stereo not drawn) | 0 | -2 |
| CCc1cc(Oc2ccccc2OC)nc(SCc2ccc(F)cc2F)n1 | 0 | 5 |
| CN(Cc1ccc(Cl)cc1Cl)c1ccc([N+](=O)[O-])cc1S(=O)(=O)N1CCOCC1 | 3 | 8 |
| CC(=O)N(C)Cc1ccccc1NCc1c(C)noc1C | 0 | 0 |

19 entries already listed, sorted by molar mass, falling.
| Molecule | NPYLR7 agonist | NPYLR7 agonist max-min |
| --- | --- | --- |
| N#Cc1cccc(C(=O)NCc2ccc(-c3ncc(-c4ccc(N5CCOCC5)cc4)[nH]3)cc2)c1 | -1 | -5 |
| CN(Cc1ccc(Cl)cc1Cl)c1ccc([N+](=O)[O-])cc1S(=O)(=O)N1CCOCC1 | 3 | 8 |
| O=C1CC(C(=O)N(Cc2ccccc2F)C2CC2)CN1c1ccccc1Br (stereo not drawn) | 5 | 3 |
| CC(=O)c1cccc(NC(=O)CC2S/C(=N/N=C3/C=C(C)CC(C)(C)C3)NC2=O)c1 (stereo not drawn) | 5 | 3 |
| CCC(C(=O)Nc1c(-c2ccccc2OC)nc2cc(C)ccn12)c1ccccc1 (stereo not drawn) | -13 | -10 |
| CCOC(=O)C1(Cc2cccc(OC)c2)CCN(Cc2ccccc2OC)CC1 | 3 | 1 |
| CCc1cc(Oc2ccccc2OC)nc(SCc2ccc(F)cc2F)n1 | 0 | 5 |
| COC(=O)Cn1c(=O)c2c(nc3n(Cc4ccco4)c(C)c(C)n23)n(C)c1=O | 12 | 6 |
| COc1ccc2cc(C3CN(C(=O)CN4CCNC(=O)C4)CCO3)ccc2c1 (stereo not drawn) | -6 | -6 |
| Cc1ccc(-c2csc(NC(=O)c3ccc([N+](=O)[O-])s3)n2)cc1C | 8 | 0 |
| COC(=O)c1c(C)[nH]c(C)c1C(=O)c1ccccc1Cc1ccccc1 | -4 | -31 |
| CC(C)Cc1ccc(-c2cc(Nc3ccc4[nH]ccc4c3)ncn2)cc1 | 25 | 25 |
| CSCC(=O)N1CCc2[nH]c3ccc(Br)cc3c2C1 | -19 | -18 |
| CCn1cc(CN2CCN(Cc3cccs3)C(CCO)C2)cn1 (stereo not drawn) | 7 | 2 |
| COc1cn(C)c(C(=O)Nc2ccc3c(c2)OCCO3)cc1=O | 3 | 0 |
| CC1(C)CC(=O)c2cn3nc(-c4cccnc4)nc3nc2C1 | -6 | -4 |
| Cc1ccc(C(=O)C2OC(=O)C(C)(C)C(=O)C2(C)C)cc1 (stereo not drawn) | 11 | 4 |
| CNC(=O)C1CCCCN1CC(=O)NCC1CCCO1 (stereo not drawn) | 2 | -1 |
| CC1CCCCC1Nc1cccc(N2CCCC2)c1 (stereo not drawn) | 12 | 8 |

(more compounds)
| Molecule | NPYLR7 agonist | NPYLR7 agonist max-min |
| --- | --- | --- |
| CCn1c2ccccc2c2cc(Nc3cccc(-c4cccc(Cl)c4Cl)n3)ccc21 | 5 | -2 |
| COC(=O)C1=CN=C2SCCC(=O)C2C1c1ccc(-c2ccccc2)cc1 (stereo not drawn) | 5&2 | 4&9 |
| CC1=C(C(=O)OCCc2ccccc2)C(c2ccsc2)NC(=O)N1C (stereo not drawn) | -7 | -13 |
| COc1ccc(NC(=O)c2ccc(CSc3nnc(-c4ccncc4)n3-c3cccc(Cl)c3)cc2)cc1 | -11 | -10 |
| CCCN(Cc1nccn1C)c1ncnc2sc3c(c12)CCNC3 | 13 | 7 |
| CSc1ncccc1C(=O)N[C@H]1CCN(C)C[C@@H](O)C1 | 3 | 13 |
| CC(=O)OC(CN(C)S(=O)(=O)c1ccc(C)cc1)Cn1c2ccccc2c2ccccc21 (stereo not drawn) | -1 | 4 |
| O=C(CCN1C(=O)/C(=C\c2ccccc2)SC1=S)NNC(=O)c1cccnc1 | -1 | 5 |
| CCOC(=O)c1cc(C(C)C)sc1NC(=O)c1cccs1 | -4 | -6 |
| CCc1[nH]n(-c2ccc(F)cc2)c(=O)c1C1=C([n+]2cc(C)cc(C)c2)C(=O)N(CC2CCCO2)C1=O (stereo not drawn) | -6 | 2 |
| Cc1noc2ncnc(NCc3cccnc3N(C)C3CCCCC3)c12 | -1 | 45 |
| CCOC(=O)c1nn(-c2ccc(C)cc2)c(=O)cc1N1CCN(c2ccc(F)c(Cl)c2)CC1 | 6 | 3 |
| O=C(Nc1ccc(SCCN2CCOCC2)nn1)c1cccc(F)c1 | 0 | -3 |
| CNc1snc(C)c1C(=O)OCc1ccc(C(=O)OC)o1 | 5 | 10 |
| O=C1NC(=O)N(C2CCCCC2)C(=O)C1=CC=Cc1ccco1 | 3 | 2 |
| Fc1ccc(NC(=S)N(Cc2ccco2)Cc2c(-c3ccccc3)noc2N2CCc3ccccc3C2)cc1 | 12 | 10 |
| CC1CCc2sc(C(=O)NNC(=S)NC(C)C)cc2C1 (stereo not drawn) | 0 | -1 |
| CC(C)(C)c1ccc(C(=O)N2CCC[C@@H]2C(=O)NCCNC(=O)c2ccccc2)cc1 | -1 | 7 |
| O=C(Nc1ccc(-c2onc3c2CCCC3)cc1)C(Cl)(Cl)Cl | 5 | 0 |
| COCCN(Cc1cc(Cl)ccc1OS(C)(=O)=O)C(=O)c1cccc(F)c1 | -4 | 3 |
| CC(=O)Nc1ccc(N2C(=O)CC(/C=C3/N(C)c4ccccc4C3(C)C)C2=O)cc1 (stereo not drawn) | -2 | 3 |
| CC1(C)C(=O)NCCN1C(=O)/C=C(/c1ccc(Cl)cc1)C(F)(F)F | 0 | 0 |
| COc1ccc(N2C(=O)C3C4C=CC(C3C2=O)C2C3C(=O)N(c5ccc(OC)cc5)C(=O)C3C42)cc1 (stereo not drawn) | -1 | -2 |
| Clc1cnccc1CN1CCOC(c2ccsc2)C1 (stereo not drawn) | 6 | 2 |

A run of entries of the results above, as a working copy:
| Molecule | NPYLR7 agonist | NPYLR7 agonist max-min |
| --- | --- | --- |
| CC(=O)Nc1ccc(N2C(=O)CC(/C=C3/N(C)c4ccccc4C3(C)C)C2=O)cc1 (stereo not drawn) | -2 | 3 |
| CC1(C)C(=O)NCCN1C(=O)/C=C(/c1ccc(Cl)cc1)C(F)(F)F | 0 | 0 |
| COc1ccc(N2C(=O)C3C4C=CC(C3C2=O)C2C3C(=O)N(c5ccc(OC)cc5)C(=O)C3C42)cc1 (stereo not drawn) | -1 | -2 |
| Clc1cnccc1CN1CCOC(c2ccsc2)C1 (stereo not drawn) | 6 | 2 |

More results
| Molecule | NPYLR7 agonist | NPYLR7 agonist max-min |
| --- | --- | --- |
| COCc1cc(C)nc(OCC(=O)N/N=C\c2cc3c(cc2[N+](=O)[O-])OCO3)c1C#N | 3 | 8 |
| COCc1ccc(C(=O)N2CCc3c([nH]c4ccccc34)C2c2cccc(C)n2)o1 (stereo not drawn) | -7&-8 | -12&-13 |
| CC1(C(=O)NS(=O)(=O)Cc2ccccc2)CCN1C(=O)c1ccccc1 (stereo not drawn) | 0 | -3 |
| Cc1nc(C)c(CN2CCn3c(nnc3C(=O)N3CCCCC3)C2)s1 | 10 | 6 |
| O=C(CCn1nc(-c2cccs2)oc1=O)Nc1ccc(F)cc1 | 6 | 7 |
| O=C(Nc1nnc(C23CC4CC(CC(C4)C2)C3)s1)C12CC3CC(CC(C3)C1)C2 | -4 | -11 |
| O=C1NC2(CCCCCC2)C(=O)N1Cc1nnsc1Cl | 3&-3 | 7&-5 |
| CNC(=O)/C=C/c1cnc(OC)nc1OC | 0 | -2 |
| COc1cccc(CSc2nnc(NC(=O)C3C[C@H]3c3ccccc3)s2)c1 (stereo partly drawn) | 29 | 28 |
| CC(c1cccc(-c2ccc(Cn3ccnc3)cc2)c1)N(C)C (stereo not drawn) | 16 | 7 |
| CCOC(=O)CCCC(=O)N1CCC(n2c(=O)oc3ccc(C(C)(C)C)cc32)CC1 | 1 | -2 |
| CC(CN1CCOCC1)C(=O)O (stereo not drawn) | -2 | 4 |
| CCC(C)N(Cc1cccc(OS(=O)(=O)c2cccc(C(F)(F)F)c2)c1)C(=O)Nc1ccc(F)c(F)c1 (stereo not drawn) | 5 | 5 |
| CCn1c(C2CCCN(C(=O)c3cnc(C)cn3)C2)nn(C)c1=O (stereo not drawn) | 4 | 1 |
| Cc1noc(C)c1CN1CCCC(O)(CO)CC1 (stereo not drawn) | -5 | -6 |
| Cc1ccc(-c2nc3ccccc3o2)cc1NC(=O)c1ccc(Cl)c([N+](=O)[O-])c1 | -10 | -16 |
| CC(=O)Nc1ccc(S(=O)(=O)NCCn2cncn2)cc1 | 0 | 4 |
